# Source: PubChem BioAssay
# VDR inh = blocks the human vitamin D receptor; 400,000 compounds, 0.93% hits; AID 504847; VDR-SRC2-3 peptide fluorescence polarization, 2 h; Potency, µM, for the others: max response, negative = inhibition, most hits filed as inhibitors; P11473; active = well fitted inhibition curve with a large enough effect; inconclusive = small, poorly fitted or top-dose-only effect, or another doubt; inactive = no such curve, though single readings can be large or run the other way; note: series mostly up to about 120 µM
# Target sequence (P11473 whole entry, looked up): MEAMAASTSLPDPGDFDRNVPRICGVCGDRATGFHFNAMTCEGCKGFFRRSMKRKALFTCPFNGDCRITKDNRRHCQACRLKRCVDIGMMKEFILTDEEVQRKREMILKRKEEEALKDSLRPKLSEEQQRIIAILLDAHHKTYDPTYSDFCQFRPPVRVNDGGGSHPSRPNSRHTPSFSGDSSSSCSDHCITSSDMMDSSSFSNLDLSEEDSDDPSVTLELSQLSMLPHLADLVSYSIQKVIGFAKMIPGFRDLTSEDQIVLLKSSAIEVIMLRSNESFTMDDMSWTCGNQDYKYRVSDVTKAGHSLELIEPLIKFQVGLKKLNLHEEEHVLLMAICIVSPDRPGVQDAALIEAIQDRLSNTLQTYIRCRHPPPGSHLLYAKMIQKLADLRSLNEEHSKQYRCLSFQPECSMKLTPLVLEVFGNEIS
#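 Fluorescence polarization assay of small-molecule disruption of VDR binding to coregulator peptide SRC2-3. Compounds and controls pin-transferred, then read after 2 h incubation at ambient room temperature.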
# Numbers without * were called inactive; ? = inconclusive; & = joins results of further samples. % is set by controls: 0 for no effect and ±100 for the full control effect; potency is the fitted concentration of half-maximal effect. An excerpt (hit frequency here may not be typical).
SMILES,VDR inh
Cc1cc(NC(=O)c2ccc(F)cc2F)n(-c2nc3ccccc3[nH]2)n1,6%
O=C(CSc1ccc2nnc(-c3ccc(Cl)cc3)n2n1)N1CCCc2ccccc21,11%
CN(c1ccccc1)S(=O)(=O)c1ccc(Cl)c(C(=O)OCC(=O)c2c(N)n(C)c(=O)n(C)c2=O)c1,-4%
O=C(O)/C=C\C(=O)Nc1ccc(N2CCN(c3ccc(F)cc3)CC2)cc1,11%
O=C(CSc1nc(O)cc(=O)n1-c1ccccc1)Nc1ccccn1,-4%
CC(=O)c1cccc(-c2ccc(CN3C(CC(C)C)C(=O)N(Cc4cn(CC5CCCCC5)nn4)CCS3(=O)=O)cc2)c1 (stereo not drawn),-16%
CCCCCCc1ccc(-c2ncc(N)cn2)cc1,2%
[O-][n+]1onc2c3cc(-c4ccccc4)nnc3ccc21,-9%
COc1cc(/C=C/C(=O)OCC(=O)Nc2ccc(NC(C)=O)cc2)cc(S(=O)(=O)N2CCc3ccccc32)c1OC,18%
Cc1ccc(-c2nc3nc4ccccc4nc3n2Cc2ccco2)cc1,-19%
COc1nc(/C(N)=N/O)nc(N2CCCCC2)n1,12%
COc1ccc(S(=O)(=O)NCCCN2CCOCC2)c2ccccc12,-9%
CCOC(=O)C1C(=O)CC(C)(O)C(C(=O)OCC)C1c1ccccc1 (stereo not drawn),-6%
Cc1ccc(NC(=O)Cc2n[nH]c(=O)c3ccccc23)cc1S(=O)(=O)N1CCCCCC1,-19%
Cn1cccc1-c1cc(C(=O)N2CCc3c([nH]c4ccccc34)C2c2ccccn2)[nH]n1 (stereo not drawn),-9%
CCn1cc2nc(SCC(=O)Nc3ccc(OC)cc3OC)n(Cc3ccc(Cl)cc3)c(=O)c2n1,-1%
O=C(COc1cccc(Cl)c1)NCC(c1cccs1)N1CCOCC1 (stereo not drawn),-3%
COc1cc(C(CCN2CCOCC2)c2c(OC)cc(OC)c3c2OC(=O)CC3c2ccc(N(C)C)cc2)cc(OC)c1OC (stereo not drawn),-9%&-6%
Cc1nc(CCNS(=O)(=O)c2cccnc2)cs1,-18%
CN(Cc1ccc(F)cc1)C(=O)CNC(=O)c1ccc2c(c1)OCO2,17%

# Overlap with the part before: 4 entries, then new ones.
SMILES,VDR inh
O=C(COc1cccc(Cl)c1)NCC(c1cccs1)N1CCOCC1 (stereo not drawn),-3%
COc1cc(C(CCN2CCOCC2)c2c(OC)cc(OC)c3c2OC(=O)CC3c2ccc(N(C)C)cc2)cc(OC)c1OC (stereo not drawn),-9%&-6%
Cc1nc(CCNS(=O)(=O)c2cccnc2)cs1,-18%
CN(Cc1ccc(F)cc1)C(=O)CNC(=O)c1ccc2c(c1)OCO2,17%
CSc1nc2ccccc2n1CC(=O)Nc1c(C)cccc1C,13%
COc1ccc(CCNC(=O)c2ccc3ccccc3n2)cc1,13%
COCCNC(=O)Cn1cc2c(n1)-c1c(oc(C(=O)N3CCCC3)c1C)CC2,7%
COc1ccccc1-c1cncnc1Nc1ccc(F)cc1,-14%
O=c1c(-c2nc3ccccc3s2)cccn1Cc1ccc(Cl)cc1,10%
OC(COC(c1ccc(Cl)cc1)c1ccc(Cl)cc1)CN1CCCC1 (stereo not drawn),18%
Nc1nnc(Cc2ccccc2F)s1,2%
CCCC(=O)N(Cc1cc(=O)[nH]c2ccccc12)c1ccc(OC)cc1,-1%
CCC1CCCCN1C(=O)CSc1nnc(-c2ccc(OC)c(OC)c2)o1 (stereo not drawn),-21%
Cc1ccccc1COC(=O)c1nn(-c2ccccc2)nc1N,-11%&-15%
COc1ccccc1NS(=O)(=O)c1cc(NC(=O)c2sc3cc(Cl)ccc3c2Cl)ccc1C,-1%
O=C(COc1ccc2ccccc2c1)NNC(=O)Cc1cccc2ccccc12,17%
CC1=NN(/C(=N\c2nnc(C)s2)Nc2ccc(C(C)(C)C)cc2)[C@H](c2ccc(C)cc2)S1,4%
CCOC(=O)c1sc2nc(C)cc(C)c2c1N,14%
COc1cccc(NC(=O)c2cc3ccccc3oc2=O)c1,-5%
NC(=O)c1ncn([C@@H]2O[C@H](CN=C3NS(=O)(=O)c4ccccc43)[C@@H](O)[C@H]2O)n1,?
CN1CCC(N(C)S(=O)(=O)c2ccc(NC(=O)Cc3ccc(F)cc3)cc2)CC1,9%
CCC(C(=O)NC1CCCC1)N(Cc1ccc2c(c1)OCO2)C(=O)c1snc(C(N)=O)c1N (stereo not drawn),8%
O=C(c1ccco1)N1CCN(c2ccc([N+](=O)[O-])cc2F)CC1,?
CCN1CCCc2cc(CN(CCN3CCOCC3)C(=S)Nc3ccc(OC)c(Cl)c3)ccc21,0%
Cn1ncc(Br)c1C(=O)N/N=C/c1ccc(OS(=O)(=O)c2ccccc2)cc1,13%
Cc1cccc(NC(=O)CN2CCN(C(=O)c3cccc(-n4cnnn4)c3)CC2)c1C,-12%
O=C(CN(C(=O)CCC(=O)Nc1nccs1)c1cccc(F)c1)NCCc1ccccc1,-9%
CC(=O)N1CCCc2cc(S(=O)(=O)N3CCC(C(=O)NCc4cccc(C)c4)CC3)ccc21,-1%
N#C/C(=C\c1ccccc1OCc1ccc(C(=O)O)cc1)C(=O)Nc1ccc(O)cc1,?
CC(Sc1cccc[n+]1[O-])C(=O)Nc1cccc(S(=O)(=O)N2CCOCC2)c1 (stereo not drawn),-20%
COc1ccccc1C(C)NCC(=O)NC(=O)NCc1ccco1 (stereo not drawn),-20%
Cc1ccc(C(C(=O)NC2CCCCC2)N(C(=O)CCCC(=O)Nc2ccccn2)c2ccc3c(c2)OCCO3)cc1 (stereo not drawn),-1%
CCCCN(C(=O)c1ccc(Cl)c(S(=O)(=O)N2CCOCC2)c1)c1c(N)n(CCC)c(=O)[nH]c1=O,1%
Cc1cccc(Nc2ncc(NC(=O)c3cccc(F)c3)c(Nc3cccc(C)c3)n2)c1,4%
CC1(C)OC(=O)C2(Cc3cc([N+](=O)[O-])ccc3N3CCCCC32)C(=O)O1 (stereo not drawn),-10%
O=C(C(=O)N1CCN(Cc2ccc3c(c2)OCO3)CC1)c1c[nH]c2ccccc12,15%
O=C(CNc1ccccc1-c1ccccc1)NCc1ccccc1,28%
COC(=O)N/N=C/c1cn(CCCOc2ccccc2)c2ccccc12,-19%
CCc1ccccc1NC(=O)c1noc2c1CC(C(C)(C)C)CC2 (stereo not drawn),-14%
CC1CCN(c2c(NCc3ccc(C(=O)N4c5ccccc5CC4C)cc3)c(=O)c2=O)CC1 (stereo not drawn),-20%
Cc1ccc(-n2ncc(C(=O)Nc3ccc(Cl)cc3)c2C2CCNCC2)cc1C,6%
CCN1CCN(c2ccc(S(=O)(=O)N3CCCCC3)cc2NC(=O)c2cccc(NC(C)=O)c2)CC1,2%
COC(=O)c1sc2nc(CSc3nc4ccc(C)cc4[nH]3)[nH]c(=O)c2c1C,10%
Cc1c(Cl)cccc1-n1nc(C)c2c(C)cc(=O)n(CC(=O)N3CCCc4ccccc43)c21,-10%

# 2 entries drawn at random from the list so far:
SMILES,VDR inh
COc1ccccc1C(C)NCC(=O)NC(=O)NCc1ccco1 (stereo not drawn),-20%
CCCCN(C(=O)c1ccc(Cl)c(S(=O)(=O)N2CCOCC2)c1)c1c(N)n(CCC)c(=O)[nH]c1=O,1%

# A few values from the entries so far:
# In VDR inh, CC1CCN(c2c(NCc3ccc(C(=O)N4c5ccccc5CC4C)cc3)c(=O)c2=O)CC1 (stereo not drawn) shows -20%
# In VDR inh, CCCCN(C(=O)c1ccc(Cl)c(S(=O)(=O)N2CCOCC2)c1)c1c(N)n(CCC)c(=O)[nH]c1=O shows 1%
# In VDR inh, Cn1ncc(Br)c1C(=O)N/N=C/c1ccc(OS(=O)(=O)c2ccccc2)cc1 shows 13%
# In VDR inh, CC(Sc1cccc[n+]1[O-])C(=O)Nc1cccc(S(=O)(=O)N2CCOCC2)c1 (stereo not drawn) shows -20%
# In VDR inh, COC(=O)c1sc2nc(CSc3nc4ccc(C)cc4[nH]3)[nH]c(=O)c2c1C shows 10%

# Following part.
SMILES,VDR inh
O=C1CCN(Cc2ccc(Br)cc2)CCN1[C@H](CO)c1ccccc1,-8%
COc1cccc(N=Nc2ccc(O)c3ncccc23)c1,4%
CCS(=O)(=O)Nc1ccc(-c2nc3cccnc3s2)cc1,-5%
COc1ccc(N(CC(=O)N/N=C/c2cc(Br)c(C)o2)S(=O)(=O)c2ccc(NC(C)=O)cc2)cc1,-10%
CCOC(=O)C1CCCN(S(=O)(=O)c2ccc(S(=O)(=O)N(CC)CC)cc2)C1 (stereo not drawn),6%
CC(C)n1cnc2cc(NCc3ccco3)ccc21,-5%
O=C1CCCCCCC1Sc1ccccc1[N+](=O)[O-] (stereo not drawn),-14%
CCOC(=O)Nc1ccc(C)cc1NC(=O)OCC,-1%
COc1ccccc1C1(CC(=O)O)CCOC(C)(C)C1 (stereo not drawn),-6%
COc1cccc(Nc2nnc(-c3cc4ccc(O)cc4oc3=O)s2)c1,7%
COc1cc(OC)cc(C(=O)N2CCN(c3ccccc3F)CC2)c1,-19%
COc1ccccc1NC(=O)CSc1nnc(CC(=O)Nc2ccccc2F)n1C,5%
COc1cc(C(=S)N2CCOCC2)cc(OC)c1OS(=O)(=O)c1ccc(NC(C)=O)cc1,-7%
Cc1cc([N+](=O)[O-])cc(C)c1OCC(=O)N/N=C/c1ccc(OC(=O)c2ccccc2Br)cc1,-4%
COc1ccc(N2C(=O)C(CC(=O)Nc3ccccc3)N(Cc3cccs3)C2=O)cc1 (stereo not drawn),-12%
COc1ccc(C2=NS(=O)(=O)N(C)C(C(=O)N3CCC(C(N)=O)CC3)=C2)cc1,2%
CN(C)c1nc(OCCNC(=O)Nc2ccccc2)nc(N(C)C)n1,10%
Cc1cc(C)cc(NC(=O)Nc2ccc(Cl)cn2)c1,-12%
CCOC(=O)c1sc(-n2[nH]c(C)cc2=O)nc1C,-20%
COc1ccc(C)cc1NC(=S)N1CC(C)OC(C)C1 (stereo not drawn),-18%
CC(=O)c1cccc(S(=O)(=O)Nc2c(C)nn(C)c2C)c1,-6%
CSc1ncccc1C(=O)OCC(=O)NC1CCS(=O)(=O)C1 (stereo not drawn),-3%
COc1cccc(N2CCN(c3nc4ccc(C(=O)c5ccccc5)cc4n4c(C)nnc34)CC2)c1,-6%
Cc1ccnc(Nc2nc(-c3ccc(F)cc3)cs2)c1,-18%
COc1ccc(C2=NN(C(C)=O)C(c3ccccc3)C2)cc1 (stereo not drawn),7%
CN(C)c1nc(/C=C(\C#N)C(N)=O)c(Cl)n1-c1ccc(F)cc1,-15%
CN(CCOc1ccccc1)CC(=O)Nc1cc([N+](=O)[O-])ccc1Cl,2%
O=C(c1ccccc1F)n1c2c(c3ccccc31)CCCC2,-22%
O=C(O)CNS(=O)(=O)c1ccc(Br)s1,-4%
Cc1nnc(SCC(=O)Nc2ccc(S(=O)(=O)N3CCCC3)cc2)n1N,11%
CC(C)(C)c1ccc(C(=O)NCCC(=O)Nc2ccc3c(c2)OCCO3)cc1,-3%
CCOC(=O)C1=C(CC)Nc2ccccc2N=C1NC(=O)c1cccc(S(=O)(=O)N2CCOCC2)c1,-4%
COc1ccc(N(CC(=O)Nc2cccc(C(=O)O)c2)S(=O)(=O)c2c(C)noc2C)cc1,-3%
COc1ccc(OC)c(C(=O)c2c(C)oc3cc(Br)c(O)c(CN(C)C)c23)c1,-13%
CCS(=O)(=O)c1nc(S(=O)(=O)c2ccc(C)cc2)c(NCc2ccccc2Cl)s1,15%
O=C(CCC(=O)N1CCSc2ccccc21)Nc1ccc(Cl)cc1,13%
O=C(NCc1cccs1)c1cccc(Nc2nc3ccc(Br)cc3[nH]2)c1,-1%
CC1CCCC(NC(=O)CSc2ncccc2C(=O)O)C1C (stereo not drawn),13%
Cc1c(Cl)cccc1NC(=O)c1cc(-c2cccs2)on1,0%
COc1cc(/C=C(\CC(=O)O)c2nc3ccccc3s2)cc(OC)c1O,-8%
O=C(Nc1cccc(-c2nc3cc(Cl)ccc3o2)c1)C1CCCO1 (stereo not drawn),13%
COC(=O)/C=C1/N/C(=N\c2nc(C)cc(C)n2)N(c2ccccc2)C1=O,-5%
COC(=O)CN(c1cccc(C(C)=O)c1)S(C)(=O)=O,-4%
CCCNC(=S)NC1CC2CCC(C1)N2Cc1ccccc1 (stereo not drawn),5%
COc1ccccc1OCCNC(=O)Cc1ccc(S(=O)(=O)N2CCOCC2)s1,4%
O=C(Nc1ccccc1C(=O)NCc1ccccc1)c1ccco1,13%
CC1(c2nnc(-c3ccncc3)o2)CC(c2ccc([N+](=O)[O-])cc2)=NO1 (stereo not drawn),12%
Cc1ccc(S(=O)(=O)Nc2ccc(N(C)S(=O)(=O)c3ccc(C)cc3)cc2)cc1,8%
O=C1/C(=C/c2cccnc2)Sc2ccccc21,?
COc1ccc(N2CC(NC(=O)N3CCN(C(=O)c4ccco4)CC3)CC2=O)cc1OC (stereo not drawn),?
O=C(N1CCCCC1)C1(c2ccccc2)CCOCC1,-5%
COc1cccc2cc(-c3ccnc(N)n3)oc12,9%
CC(=O)N[C@@H](C)c1nc2ccccc2n1CCCN1CCN(c2nc(-c3ccc(C)cc3)cs2)CC1,-16%
CC1CCCC(C)N1CCNC(=O)Nc1ccc(Cl)cc1 (stereo not drawn),-4%
COC(=O)c1ccc(NC(=O)CC2C(=O)N(c3cccc(F)c3)C(=O)N2CC(C)C)cc1 (stereo not drawn),-9%
CC1=CC2CC1C1C(=O)N(c3ccc(S(=O)(=O)Nc4nc(C)cc(C)n4)cc3)C(=O)C21 (stereo not drawn),3%
Cc1cc(C)nc(NS(=O)(=O)c2ccc(NC(=O)c3ccc(N4C(=O)CCC4=O)cc3)cc2)n1,-2%
Nc1nc(C(F)(F)F)c(Br)c(=O)n1N,-11%
CCN(CC(=O)Nc1ccc(N2CCOCC2)cc1)C(=O)c1ccc(C#N)cc1,1%
Cc1cccc(NC(=O)CSc2nnc3scc(-c4ccccc4)n23)c1,-14%
CCN(C(=O)COC(=O)CCS(=O)(=O)c1ccccc1)c1c(N)n(Cc2ccccc2)c(=O)[nH]c1=O,0%
COc1ccc(C(=O)N2CCN(C(=O)C3COc4ccccc4O3)CC2)cc1 (stereo not drawn),7%
